# Screening results as filed in PubChem.
# NPYLR7 agonist = activates Aedes aegypti NPYLR7 receptor. activation, % at 10 µM. HEK293T NPYLR7/Galpha15, GCaMP6s calcium fluorescence. AID 1259423. 270,000 tested, 0.15% active; in the data active = activation above about 40%;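 note: 0% = vehicle and 100% = reference agonist at the receptor; some compounds past the cut are filed as inactive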
# NPYLR7 agonist max-min = also measured in NPYLR7 agonist; calls as there; activation, %; measured here: Max-Min RFU normalised activation; some inactives read as strong as hits;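 span of the calcium signal over five minutes; 0% = vehicle and 100% = native peptide agonist; compound fluorescence can raise it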
# Starred values were filed as active, the others as inactive; & = joins results of further samples.
SMILES,NPYLR7 agonist,NPYLR7 agonist max-min
Cc1cn2c3c(=O)n(Cc4ccccc4Cl)c(=O)n(C)c3nc2n1CCOCCO,4,6
O=C(CCCc1cn(S(=O)(=O)c2cccs2)c2ccccc12)N1CCc2c([nH]c3ccccc23)C1,-7,-14
CCOC(=O)C1(Cc2cccc(Cl)c2)CCCN(C(=O)CN2CCCC2=O)C1 (stereo not drawn),7,5
Cc1ccc(S(=O)(=O)N(Cc2csc(COc3ccccc3C(C)C)n2)C2CC2)cc1,10,14
CCc1ccc(-n2nc(C(=O)O)c3c2CCC3)cc1,16,17
CCOC(=O)[C@@H]1CN(C(=O)c2ccc3c(c2)OCCCO3)[C@H]2c3cccc(C)c3O[C@@H]12,0,10
Cc1cc(C)c(OCCNC(=O)CCn2c(C)cc(C)nc2=O)c(C)c1,2,0
COc1ccc(-c2cc(C(=O)NC(C)C(C)C)n3nc(-c4ccccc4)cc3n2)cc1 (stereo not drawn),4,1
CC(c1ccc(Cl)cc1Cl)N(C)C(=O)/C=C/c1cccnc1 (stereo not drawn),-3,1
O=C(c1cc(COc2cccc3cccnc23)on1)N1CCC[C@H]1CO,-1,0
COC(=O)C1(NCc2ncc(-c3ccc(OC)cc3)o2)CCCC1,2,10
COc1ccc(NC(=O)CCC2CCN(Cc3ccc(F)cc3F)CC2)c(OC)c1,10,5
COCCCn1c(C)cn2c3c(=O)n(CCc4ccccc4)c(=O)n(C)c3nc12,-1,3
CN(CCc1cn[nH]c1)c1ccc(-c2nccn2C)nn1,0,-4
CCOC(=O)c1cccc2c1NC(c1ccccc1[N+](=O)[O-])C1CC=CC21 (stereo not drawn),-2,8

# Reformatted tab-delimited: entries from further up
Molecule	NPYLR7 agonist	NPYLR7 agonist max-min
COc1ccc(NC(=O)CCC2CCN(Cc3ccc(F)cc3F)CC2)c(OC)c1	10	5
COCCCn1c(C)cn2c3c(=O)n(CCc4ccccc4)c(=O)n(C)c3nc12	-1	3

# (cont.)
SMILES,NPYLR7 agonist,NPYLR7 agonist max-min
CCOc1ccc(NC(=O)c2nnn(-c3ccc(F)cc3)c2N)cc1,7,10
O=C(CC1CCCC1)OCc1cc(-c2ccc(F)cc2)on1,0,-2
CCC(Cn1cnc(-c2ccccc2)c1-c1nccs1)N1CCOCC1 (stereo not drawn),-19,-21
Cc1ccc(CNC(=O)CSc2nc3c(cnn3CCO)c(=O)[nH]2)cc1,2,0
COCCNC(=O)NC(C)(C)c1cnn(C)c1,-2,-5
CC1c2cccn2CCN1Cc1ccc(C#N)cc1F (stereo not drawn),8,5
COC(=O)c1sc(S(=O)(=O)N2CCN(C(=O)C(C)C)CC2)c(C(=O)OC)c1C,-7,-11
Cc1ccc(C)c(OCCN(C)Cc2ncccc2C(=O)O)c1,15,12
CC(=O)NO,-9,-16
CCCNC(=O)c1c(O)nc2ccccn2c1=O,-2,27
CCS(=O)(=O)c1ncc(CN2CCN3CCCC3C2)n1CCCc1ccccc1 (stereo not drawn),3,-3
Cc1ccc(Cc2nsc(N3CCCN(S(=O)(=O)c4ccc(C(C)(C)C)cc4)CC3)n2)cc1,20,19
Cc1cc(CS(=O)(=O)Nc2ccccc2CN(C)C2CCCCC2)on1,14,11
Cc1cc(C)c(C)c(OCCC(=O)N2CCCN(CC(N)=O)CC2)c1,-6,-7
CC(C)C(=O)N1CCCC(C(=O)NCc2ccc(NC(=O)c3ccco3)cc2)C1 (stereo not drawn),-1,-3
Cc1ccc(-n2cnn(CN3CCN(S(=O)(=O)c4ccccc4C#N)CC3)c2=S)c(C)c1,8,6
COc1ccc(Cn2ccnc2CN(Cc2cccnc2)C(=O)c2cccs2)cc1,8,18
CNC(=O)Nc1nc(SC)n[nH]1,-2,-3
CNC(=O)C(C)SC1=NC(=Cc2ccc(OC)cc2)C(=O)N1Cc1ccccc1 (stereo not drawn),0,1
COc1ccc(S(=O)(=O)Nc2c(C)cccc2C(C)C)cc1OC,-2,-2
O=C(c1nc2ccc(Cl)cn2c1CN1CCSCC1)N1CCCCCCC1,16,7
CC1(Cc2ccccc2C#N)C(=O)Nc2ccc(OC(F)(F)F)cc21 (stereo not drawn),-2,3
Cc1ccccc1-c1ccc(N2CCC(C(=O)NN3CCN(C)CC3)CC2)nn1,-9,-15
CCN(CC)c1ccc2cc(-c3csc(N/N=C\c4ccccc4)n3)c(=O)oc2c1,4,0
Cc1cc(S(=O)(=O)NC(C)(C)CC(C)(C)C)ccc1F,1,0
COc1ccc(N2C(=O)CN(C(=O)c3ccc(OC)o3)CC2(C)C)cc1,6,3
COCc1cc(C)nc(OCC(=O)N/N=C\c2ccc(O)cc2O)c1C#N,5,8
CC(C)C(C)N(Cc1ccc(-c2nn[nH]n2)cc1)Cc1ccco1 (stereo not drawn),-1,-4
CCCCc1ccc(-n2c(C)cn3c4c(=O)n(CC(=O)OCC)c(=O)n(C)c4nc23)cc1,8,7
Fc1ccc2c(c1)C(=NNc1nc3ccccc3s1)CCS2,9,6
CCOC1CC(NC(=O)CNC(=O)c2ccccc2C)C1(C)C (stereo not drawn),-8,-13
CC(=O)Nc1ccc(OC(=O)c2ccccc2O)cc1,-14,-17
CN1CCN(C(=O)CCN2C(=O)/C(=C/c3ccc(F)cc3)SC2=S)CC1,-3,-8
COc1cccc(-c2cc(C(=O)N3CCN(C(=O)Cc4cccs4)CC3)c(C)n2-c2ccccc2)c1,19,29
COC(CNc1ncnc2c1nnn2C)OC,13,6
Cc1cc(=O)n2[nH]c(C)c(-c3ccccc3)c2n1,-2&10,-3&10
COc1cc(C(=O)N2CCCC(Nc3ccc(C)c(C)c3)C2)cc(OC)c1OC (stereo not drawn),5,7
CCCOC(=O)N1CCC(c2nn(C)c(=O)n2Cc2ccccc2)CC1,0,-5
CCNC(=O)NCC1CCCN(Cc2cc3ccccc3o2)C1 (stereo not drawn),3,2
COCCNC(=O)c1cccc(CSc2nc(N3CCCC3)cc(C(C)(C)C)n2)c1,5,6
CCOC(=O)C1=C(COC(=O)C=Cc2ccc(Br)o2)NC(=O)NC1C (stereo not drawn),3,2
Cc1cc(C(=O)N2CCC(C(N)=O)C2)c(C)n1-c1ccccn1 (stereo not drawn),-2,-4
COc1ccc(C(=O)N2CCC3(CC2)C(=O)N(CC(=O)Nc2ccc(C)cc2)CN3c2ccccc2)cc1,15,19
CCc1[nH]n(-c2ccc(Cl)c(Cl)c2)c(=O)c1C1=C([n+]2ccccc2)C(=O)N(CC(C)C)C1=O,-4,3
COC(=O)c1ccc(/C=C2\SC(=S)N(c3ccccc3)C2=O)cc1,3,1
CCCC(C)(C)C(=O)N1CCC1(C)C(=O)NS(=O)(=O)c1ccccc1C (stereo not drawn),13,13
CCCS(=O)(=O)N1CCC(C(=O)Nc2ccc(N3CCCC3)nc2)CC1,8,4
Cc1nc(C(=O)N2CCCC2c2cc(C(C)C)on2)cs1 (stereo not drawn),5,-8
Cc1ccccc1CCNC(=O)c1cnc2n(c1=O)CCS2,8,2
CCN(Cc1noc(C)n1)C(=O)CCc1scnc1C,-6,-9
O=C1NC(=S)NC(=O)C1=Cc1ccc(OCCOc2ccccc2)cc1,-6,-11
Cc1cc(C(=O)OCC(=O)c2ccccc2)c2ccccc2n1,1,0
CC(=O)NCCn1ncc2c(N3CC(C)OC(C)C3)ncnc21 (stereo not drawn),-4,-4
COc1cccc(-c2cc(C(=O)N3CCN(S(=O)(=O)c4ccc(F)cc4)CC3)c(C)n2-c2ccccc2)c1,11,17
Cc1cc(OCc2nc(C(=O)NCC3CCCO3)cs2)ccc1Cl (stereo not drawn),1,5
CCOCCn1cc(C2CCN(S(=O)(=O)c3cc(Cl)cc(Cl)c3)CC2)c2ccccc21,5,0
C=CCSc1nc2c(c(=O)n(C)c(=O)n2C)n1Cc1ccccc1,4,2
Cc1noc(NS(=O)(=O)c2ccc(N=CC(C#N)c3nc4ccccc4n3C)cc2)c1C (stereo not drawn),-7,-9
CN(C)CCN(Cc1cc(NC(=O)c2ccco2)ccc1N(C)C)C(=O)c1ccc(F)cc1,4,16
CC[C@@]1(C(=O)O)C[C@H](C(=O)NCc2cccnc2)[C@H](c2ccc(OC)cc2)N1C,-6,-7
# (further entries)
SMILES,NPYLR7 agonist,NPYLR7 agonist max-min
COC(=O)c1cc(=O)n2[nH]cnc2n1,6,16
Cc1ccc(C(=O)N=C2N=C3C=CC(I)=CN3Cc3ccccc32)cc1,-1,-6
Cc1nccn1CCC1CCCCN1C(=O)Cn1nnnc1CN1CCOCC1 (stereo not drawn),-4,-10
c1ccc(/C(=C(\c2ccccc2)c2ccncc2)c2ccncc2)cc1,8,6
S=c1[nH]nc(-c2cccc(Br)c2)o1,0,5
CCCn1ncc(C(=O)N2CCC(Cc3cccc(C(=O)O)c3)C2)c1C (stereo not drawn),4,4
COc1ccc(-c2nnc(SCc3c(F)cccc3Cl)n2-c2ccc(Cl)c(Cl)c2)cc1,8,10
C=CCNC(=O)C(C1CCCC1)N1CCN(C(=O)c2ccc(Cl)c(Cl)c2)CC1 (stereo not drawn),-1,-1
CCc1csc(CNC(=O)c2ccc(N3Cc4cnn(CCO)c4C3)nc2)n1,2,0
CC(C)c1ccc(N2CCN(CC(=O)N(CCO)Cc3ccccc3)C2=O)cc1,14,10
COc1ccc(-c2c(C)c3ccc4c(c3oc2=O)CN(Cc2ccco2)CO4)cc1OC,-2,5
COc1cccc(N=c2scc(-c3ccccc3)n2-c2ccc(OC)c(OC)c2)c1,-11,-16
CN(C)c1ncc(-c2nccn2Cc2cccc(-n3cccn3)c2)cn1,5,1
COc1cc(OC)cc(C(=O)NCCc2nnc3ccccn23)c1,6,4
COc1ccc(OC)c(/C=C/c2[nH]c(=O)[nH]c(=O)c2[N+](=O)[O-])c1,-13,-18

# Arranged by formula weight (falling): some entries from above.
SMILES,NPYLR7 agonist,NPYLR7 agonist max-min
COc1cccc(-c2cc(C(=O)N3CCN(S(=O)(=O)c4ccc(F)cc4)CC3)c(C)n2-c2ccccc2)c1,11,17
COc1ccc(-c2nnc(SCc3c(F)cccc3Cl)n2-c2ccc(Cl)c(Cl)c2)cc1,8,10
CCOCCn1cc(C2CCN(S(=O)(=O)c3cc(Cl)cc(Cl)c3)CC2)c2ccccc21,5,0
Cc1ccc(C(=O)N=C2N=C3C=CC(I)=CN3Cc3ccccc32)cc1,-1,-6
Cc1noc(NS(=O)(=O)c2ccc(N=CC(C#N)c3nc4ccccc4n3C)cc2)c1C (stereo not drawn),-7,-9
C=CCNC(=O)C(C1CCCC1)N1CCN(C(=O)c2ccc(Cl)c(Cl)c2)CC1 (stereo not drawn),-1,-1
COc1cccc(N=c2scc(-c3ccccc3)n2-c2ccc(OC)c(OC)c2)c1,-11,-16
Cc1nccn1CCC1CCCCN1C(=O)Cn1nnnc1CN1CCOCC1 (stereo not drawn),-4,-10
CCc1csc(CNC(=O)c2ccc(N3Cc4cnn(CCO)c4C3)nc2)n1,2,0
CC[C@@]1(C(=O)O)C[C@H](C(=O)NCc2cccnc2)[C@H](c2ccc(OC)cc2)N1C,-6,-7
CC(C)c1ccc(N2CCN(CC(=O)N(CCO)Cc3ccccc3)C2=O)cc1,14,10
O=C1NC(=S)NC(=O)C1=Cc1ccc(OCCOc2ccccc2)cc1,-6,-11
Cc1cc(OCc2nc(C(=O)NCC3CCCO3)cs2)ccc1Cl (stereo not drawn),1,5
CCCn1ncc(C(=O)N2CCC(Cc3cccc(C(=O)O)c3)C2)c1C (stereo not drawn),4,4
CN(C)c1ncc(-c2nccn2Cc2cccc(-n3cccn3)c2)cn1,5,1
C=CCSc1nc2c(c(=O)n(C)c(=O)n2C)n1Cc1ccccc1,4,2
c1ccc(/C(=C(\c2ccccc2)c2ccncc2)c2ccncc2)cc1,8,6
COc1cc(OC)cc(C(=O)NCCc2nnc3ccccn23)c1,6,4
COc1ccc(OC)c(/C=C/c2[nH]c(=O)[nH]c(=O)c2[N+](=O)[O-])c1,-13,-18
CC(=O)NCCn1ncc2c(N3CC(C)OC(C)C3)ncnc21 (stereo not drawn),-4,-4
Cc1cc(C(=O)OCC(=O)c2ccccc2)c2ccccc2n1,1,0
CCN(Cc1noc(C)n1)C(=O)CCc1scnc1C,-6,-9
S=c1[nH]nc(-c2cccc(Br)c2)o1,0,5
COC(=O)c1cc(=O)n2[nH]cnc2n1,6,16

# Remaining list, next part:
SMILES,NPYLR7 agonist,NPYLR7 agonist max-min
CN1CC2(CCN(C(=O)c3ccccc3N3CCOCC3)C2)OC1=O (stereo not drawn),5,2
CCCCCc1ccc(C(=O)N(CCOC)Cc2ccc(OS(C)(=O)=O)cc2)cc1,19,29
COc1ccc(CN2CCN3CCN(C)C(=O)C3C2)cc1Cn1cncn1 (stereo not drawn),-2,-4
CCNc1cc(C)nc(N2CCN(C(=O)COc3ccccc3)CC2)n1,9,2
CCC(=O)Nc1cccc(C(=O)NCCCn2ccc3ccccc32)c1,2,2
CC(CCCC(C)(C)O)NCc1cn[nH]c1-c1ccc2c(c1)OCO2 (stereo not drawn),1,0
O=C(Nc1cccc(Oc2ccccc2)c1)N1CC(=O)N2CCc3c(F)cccc3C2C1 (stereo not drawn),17,6
Cc1ccc(S(=O)(=O)NCC(c2ccc3c(c2)CCCN3C)N(C)C)c(C)c1 (stereo not drawn),1,-1
CCOC(=O)C1CCN(C(=O)c2cccc(CSc3nc(C)c(C)c(N(C)C)n3)c2)CC1,3,8
CN(C)CCC1CN(c2nc(C(N)=O)cs2)CCO1 (stereo not drawn),-1,-8
CCCCn1c(=O)c2c(nc3n(C(C)C)c(C)c(C)n23)n(C)c1=O,-8,-9
COc1ccccc1C(NC(=O)C1CCN(CCOc2ccc3ccccc3c2)CC1)c1ccccn1 (stereo not drawn),-7,-5
CCCCN(CC(=O)N1c2ccccc2-n2cccc2C1c1ccc(OC)cc1)C(=O)Nc1c(Cl)cccc1Cl (stereo not drawn),-5,4
CNC(=O)CSc1nnc(N2CCN(C(=O)c3ccc(C(C)(C)C)cc3)CC2)s1,-11,-14
CCC(C)N(Cc1c(C)nn(-c2cccc(F)c2)c1N1CCN(CC)CC1)C(=O)Nc1ccc(Cl)cc1 (stereo not drawn),-1,8
COc1ccc(Br)c(Cn2c(C)c(C(=O)NCc3cccc([N+](=O)[O-])c3)sc2=O)c1,11,6
CCOC(=O)Cc1csc(NC(=O)c2ccc(F)cc2)n1,6,2
CSCCN(C)C(=O)c1c(C)nc(C(C)C)[nH]c1=O,9,6
O=C(Nc1nnc(COc2ccccc2F)s1)c1ccco1,-6,-15

# These rows are one share of the data; count on the stated rates, not on these rows.
